Bioassay records as filed in PubChem.
V. cholerae QS: Vibrio cholerae quorum sensing activators, luminescence (AID 686977); V. cholerae quorum sensing reporter, luminescence, 6 h; higher luminescence means a stronger effect; most inactives read 0; luminescence at 50 µM unless noted; hits with a dose series show EC50 in µM; 9,400 tested, under 10 active;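 active means light above mean plus 3 SD and confirmed in a dose series; inconclusive means above that limit without a clear retest; inactive means below it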;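 further: raw light counts without normalisation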
* = called active by the depositor; ? = inconclusive; [ ] = dose if it differs, or a comment.

SMILES | V. cholerae QS
CCOc1ccc(N(C(C)C(=O)NC2CCCCCC2)S(C)(=O)=O)cc1 (configuration not stated) | 120
COc1ccc(-c2nnc(SCC(=O)NC(C)c3ccccc3)o2)cc1 (configuration not stated) | 320
COc1ccc2nc(SCC(=O)Nc3ccc(S(=O)(=O)N4CCCC4)cc3)c(C#N)cc2c1 | 0
O=c1[nH]c(=O)n(C2C[C@H](O)[C@@H](CO)O2)cc1C(F)(F)F (some centres not stated) | 0[10 µg/mL]
CC(NC(=O)COc1ccccc1)C(=O)OCC(=O)c1cc2ccccc2o1 (configuration not stated) | 0
COc1ccc(S(=O)(=O)N2CCN(C)CC2)cc1Br | 0
Nc1c(N(C(=O)Nc2ccc(Cl)c(Cl)c2)C2CCCC2)c(=O)[nH]c(=O)n1Cc1ccccc1 | 0
Cc1ccc(C)c2c1[nH]c1ccc([N+](=O)[O-])cc12 | 0
COc1cc(NC(=O)Cc2ccccc2)cc(OC)c1 | 0
CCOC(=O)C1CCN(C(=O)CCc2c(C)nc3c(-c4ccc(F)cc4)c(C)nn3c2C)CC1 | 0
Cn1c(=O)oc2cc(S(=O)(=O)N3CCC4(CC3)OCCO4)ccc21 | 0
Cn1c(SCc2cc(=O)[nH]c3ccccc23)nnc1-c1ccc(Br)cc1 | 0
COc1cc(NC(=O)C2CCN(S(=O)(=O)c3ccc(Cl)cc3)CC2)ccc1-n1cnnn1 | 240
COc1cccc(C(=O)NCCn2ccc3ccccc32)c1 | 40
CO/N=C(\C(=O)N[C@@H]1C(=O)N2C(C(=O)O)=C(COC(C)=O)CS[C@H]12)c1csc(N)n1 | 0[10 µg/mL]
O=C(CC1SC(=O)N(c2ccccc2)C1=O)Nc1ccccc1 (configuration not stated) | 40
Cn1c(-c2cccc(OCc3ccccc3)c2)nc2c1c(=O)[nH]c(=O)n2Cc1ccccc1 | 0
CCOC(=O)CSc1nc2ccc(N3CCOCC3)cc2c(=O)n1Cc1ccc2c(c1)OCO2 | 40
COc1ccc(CCC(=O)N2CCN(S(=O)(=O)c3ccc4ccccc4c3)CC2)cc1 | 0
O=C(COc1ccc(Cl)cc1Cl)NCCCn1ccnc1 | 0
COc1cccc(NC(=O)CC2C(=O)NC3CCCCC3N2C(=O)c2ccc(F)cc2)c1 (configuration not stated) | 40
CCC(=O)NCCSc1c[nH]c2ccccc12 | 0
CCC1=C(C)CN(C(=O)NCCc2ccc(S(=O)(=O)NC(=O)NC3CCC(C)CC3)cc2)C1=O (configuration not stated) | 0[10 µg/mL]
COc1ccccc1-c1nnc(NC(=O)C(C)SC2=NCCS2)s1 (configuration not stated) | ?
CCC(=O)NC(C)C(c1cccs1)N1CCN(Cc2ccccc2)CC1 (configuration not stated) | 0
CC1CC(C)CN(CCCNC(=O)Cc2c(C(=O)O)[nH]c3ccccc23)C1 (configuration not stated) | 0
O=C1c2ccccc2C(Nc2ccc(S(=O)(=O)N3CCCCCC3)cc2)N1Cc1ccco1 (configuration not stated) | 40
COc1ccccc1-c1cc(-c2ccc(C)cc2)nc(SCc2nnc(-c3ccccc3)o2)c1C#N | 0
O=C(NCc1ccccn1)C1CCC(=O)N1C1CCCCC1 (configuration not stated) | 0
CCN1CCN(C(=O)c2ccc(Cl)c(S(=O)(=O)N3CCOCC3)c2)CC1 | 0
Cc1cccn2c(=O)c3cc(C(=O)NC4CCCC4)c(=N)n(C4CCCC4)c3nc12 | 0
COCCn1c(=O)[nH]c2cc(C(=O)NCCN3CCN(c4ccccc4)CC3)ccc2c1=O | 0
Cc1ccccc1-c1cc(C(=O)Nc2sc(C)c(C)c2C(N)=O)c2ccccc2n1 | 40
COc1ccc(S(=O)(=O)Cc2ccc(C(=O)NCCCN3CCc4ccccc4C3)o2)cc1 | 0
COC(=O)c1ccccc1NC(=O)N[C@@H](C)C(=O)OC | ?
CCCc1c(C(=O)OCC)[nH]c2c1C(=O)CCC2 | 0
O=C(CN(Cc1ccccc1)S(=O)(=O)c1ccc2c(c1)OCCO2)Nc1ccc2c(c1)OCCO2 | 0
COc1ccc(S(=O)(=O)Cc2ccc(C(=O)NCCc3ccc(S(N)(=O)=O)cc3)o2)cc1 | 0
O=C(CSc1nnc(-c2ccncc2)n1Cc1ccco1)c1ccc(Cl)cc1 | 40
CSC1=NCCN1C(=O)c1c(-c2ccccc2Cl)noc1C | 0
CC(C)(C)NC(=O)Cn1c(=O)oc2cc(S(=O)(=O)N3CCc4ccccc43)ccc21 | 0
N#Cc1ccccc1NC(=O)COC(=O)CSc1nc2ccccc2o1 | 0
Cc1ccc(C)c(NC(=O)CSc2ncnc3nc[nH]c23)c1 | 40
CCCC(=O)Nc1nc2c(OC)ccc(OC)c2s1 | 0
Cc1cc2c(cc(C(=O)N3CCC(C(=O)N4CCCC4)CC3)n2Cc2c(F)cccc2Cl)o1 | 0
COc1ccc(C(=O)N(CC(=O)NC(C)(C)C)c2ccc3c(c2)OCCO3)cc1OC | 0
O=C(c1ccccc1F)N1CCN(S(=O)(=O)c2ccc3c(c2)OCCO3)CC1 | 0
C=CC(N)CCC(=O)O (configuration not stated) | 0[10 µg/mL]
Cc1nc(SC2CC(=O)N(c3cc(Cl)cc(Cl)c3)C2=O)nc2c1CCCC2 (configuration not stated) | 40
CCCCc1nccn1CCn1ccnc1CCCC | 0
N=c1oc2ccccc2cc1-c1nc2ccccc2c(=O)[nH]1 | 40
C[N+]1(C)CCCC(OC(=O)C(O)(c2ccccc2)c2ccccc2)C1 (configuration not stated) | 0[10 µg/mL]
O=[N+]([O-])/C=C/c1cn(Cc2ccc(F)cc2)c2ccccc12 | 0
COc1cc(/C=C2\N=C3CCCCCN3C2=O)ccc1O | 0
Cc1ccc(S(=O)(=O)N2c3ccccc3OCC2C(C)(C)C)cc1 (configuration not stated) | 0
COc1ccc(-n2c(SCC(=O)Nc3ccc4c(c3)OCO4)nc3c(c2=O)SCC3)cc1 | 0
CCN(CC)CCN1C(=O)c2ccccc2NC1c1ccc(C)cc1 (configuration not stated) | 40
CCCOc1cccc(C(=O)Nc2cccnc2)c1 | 0
O=C1CC(Nc2ccc(N3CCOCC3)cc2)C(=O)N1c1ccccc1F (configuration not stated) | 40
CC[N+]1(C)CCCC(OC(=O)C(O)(c2ccccc2)c2ccccc2)C1 (configuration not stated) | ?

The list goes on.
SMILES | V. cholerae QS
O=C1C(=O)N(Cc2cccnc2)C(c2ccccn2)/C1=C(/O)c1ccc(F)cc1 (configuration not stated) | 0
CCCSc1ccc2nc(NC(=O)OC)[nH]c2c1 | 0[10 µg/mL]
COc1ccc(-n2c(Cc3cccn3C)nnc2SCC(N)=O)cc1 | 0
COc1ccc(C2NC(=O)c3sc(=S)n(-c4ccccc4)c3N2)cc1 (configuration not stated) | 0
COc1ccccc1N1CCN(c2nc3ccccc3nc2C(C#N)C(=O)OC(C)C)CC1 (configuration not stated) | 1000
Cc1ccc(C)c(N(C)C(=O)COc2cc(=O)n(C)c3ccccc23)c1 | 0
CCc1ccc(Cn2nnc(C(=O)Nc3ccc(OC)cc3OC)c2N)cc1 | 40
CC12CN3CC(C)(CN(C1)P3(=O)Oc1ccccc1)C2=O (configuration not stated) | 0
COc1cccc(C2N(c3cccc(Cl)c3)C(=O)C3CCCN32)c1OC (configuration not stated) | ?
CCCc1cc(=O)oc2cc(OCc3cc(OC)c(OC)c(OC)c3)c(Cl)cc12 | 40
Clc1ccc(-c2cc(COc3ccc4ccccc4c3)no2)cc1 | 0
Cc1cc(N)c2ccccc2[n+]1CCCCCCCCCC[n+]1c(C)cc(N)c2ccccc21 | 0[10 µg/mL]
CC(=O)c1c(C)[nH]c(C(=O)NCCc2ccccc2)c1C | 40
COc1cccc(N2CCN(C(=O)c3ccc4nc(N5CCCCC5)sc4c3)CC2)c1 | 40
O=C(NC(=S)N1CCCCC1)c1cccnc1 | 0
O=P(OC1CCCCC1)(OC1CCCCC1)C(O)c1ccccc1 (configuration not stated) | 0
Cc1ccc(CSc2ncnc3c2cnn3Cc2ccccc2)cc1C | 0
COC(=O)C(Cc1cnc(Cl)s1)(C(=O)OC)c1ccccc1[N+](=O)[O-] | 0
CC1(C)Oc2ccc3ccc(=O)oc3c2-c2cnoc21 | 0
COc1cc2c(cc1OC)-c1nnc(C)n1C1(CCCC1)C2 | 0
CC[C@@H](C)C(=O)O[C@H]1[C@H](O)[C@H]2[C@@H](CN3C[C@@H](C)CC[C@H]3[C@@]2(C)O)C2C[C@]34O[C@@]5(O)[C@@H](OC(=O)[C@](C)(O)CC)CC[C@@]3(C)[C@@H]5[C@@H](OC(C)=O)[C@@H](OC(C)=O)[C@H]4[C@@]21O (some centres not stated) | 0[10 µg/mL]
O=C1OCCN1/N=C/c1ccc([N+](=O)[O-])o1 | 0[10 µg/mL]
COCC(=O)NCCc1nc2ccccc2[nH]1 | 0
CC1(C)O[C@@H]2C[C@H]3[C@@H]4CCC5=CC(=O)CC[C@]5(C)[C@@]4(F)[C@@H](O)C[C@]3(C)[C@]2(C(=O)CCl)O1 | 0[10 µg/mL]
CCOC(=O)N1CCN(c2c(NCCN3CCCCC3CC)c(=O)c2=O)CC1 (configuration not stated) | 0
Cc1cccc(CCNC(=O)C2CCCN(S(=O)(=O)c3cnc[nH]3)C2)c1 (configuration not stated) | 40
Cc1cc(F)c(F)c(C(=O)N2CCN(C)CC2)c1Cl | ?
CCn1cc(C2=NOC(C(=O)Nc3cccc(C(C)=O)c3)C2)c(C)n1 (configuration not stated) | 0
O=C(COc1ccc(S(=O)(=O)NC2CCCCC2)cc1)N1CCN(c2cccc(Cl)c2)CC1 | 0
O=C(CSc1nnnn1-c1ccccc1Cl)Nc1ccc2c(c1)OCCO2 | 40
O=C(c1ccccc1F)N(Cc1ccc(F)cc1)C1CCS(=O)(=O)C1 (configuration not stated) | 0
Cc1cc(C)c(S(=O)(=O)Nc2cccnc2)c(C)c1 | 0
COc1ccc(N)cc1C#N | 0
Cc1nnc(SC(=O)N2c3ccccc3Sc3ccccc32)s1 | 40
CC1CCCN(Cc2c(O)ccc3c(=O)c(-c4nc5ccccc5s4)c(N)oc23)C1 (configuration not stated) | 0
CC(=O)Cc1nsc(NC(=O)c2cc(-c3ccccc3Cl)oc2C)n1 | 280
O=C(C1CCCN(S(=O)(=O)c2cccc3cccnc23)C1)N1CCN(c2ccc(F)cc2)CC1 (configuration not stated) | 0
Cc1c(NC(=O)C(C)Oc2ncnc3ccccc23)c(=O)n(-c2ccccc2)n1C (configuration not stated) | 0
N#Cc1cc(-c2ccccc2)nnc1Sc1ccccc1 | 0
Cn1c(CSc2nnc(SCc3ccccc3)s2)nc2ccccc21 | 0

The list goes on; it opens with the two that closed the last part.
SMILES | V. cholerae QS
N#Cc1cc(-c2ccccc2)nnc1Sc1ccccc1 | 0
Cn1c(CSc2nnc(SCc3ccccc3)s2)nc2ccccc21 | 0
O=C(NCC1CCCCN1)c1cc(OCC(F)(F)F)ccc1OCC(F)(F)F (configuration not stated) | 0[10 µg/mL]
O=C(Nn1c(C2CC2)nc2ccccc2c1=O)c1ccco1 | 0
CCOC(=O)COc1cc(N2C(=O)CSCC2=O)c(Cl)cc1Cl | 720
CC(=O)N1CCC(N(C(=O)Nc2c(F)cccc2F)C(C)C)CC1 | 0
CCn1cc(C(=O)NCc2ccc(Cl)cc2)c(=O)c2cc(S(=O)(=O)N3CCOCC3)ccc21 | 0
CC(C)N(CCCNC(=O)CC1Oc2ccccc2NC1=O)Cc1ccccc1 (configuration not stated) | 0
CCC(C)C(=O)Nc1nc2c(s1)C(=O)CC(C)(C)C2 (configuration not stated) | 200
CCOc1cc(C(=O)Nc2nnc(C)s2)cc(OCC)c1OCC | 0
CC(C)(C)c1ccc(CS(=O)(=O)CC2(O)CCN(C(=O)c3cccc(C(F)(F)F)c3)CC2)cc1 | 0
Cc1ccc(-c2cc(C)nc3ncnn23)cc1 | 0
CC(NC(=O)Nc1ccc(Cl)cc1)C(c1cccs1)N1CCOCC1 (configuration not stated) | 240
Cc1ccc(/C=C(/C#N)c2nc(CCN3C(=O)c4ccccc4C3=O)cs2)cc1 | 0
COc1cc(C=O)ccc1OCCSc1ccc(Cl)cc1 | 0
COC(=O)CCN(C(=O)C12CC3CC(CC(C3)C1)C2)c1ccccn1 | 0
O=C(OC(C(=O)NCC1CCCO1)c1ccc(F)cc1)c1ccco1 (configuration not stated) | 40
CCC1(c2ccccc2)C(=O)NCNC1=O | 0[10 µg/mL]
Cc1cc(Br)ccc1OCC(=O)N1CCCCCC1 | 0
CC(C)C(=O)c1cn(CC(=O)N2CCCc3ccccc32)c2ccccc12 | 0
CC1CCN(C(=O)C(C)Sc2nc(-c3ccccc3)cc(C(F)(F)F)n2)CC1 (configuration not stated) | 40

Exported in CSV form: entries from further up
Structure,V. cholerae QS
CCOC(=O)COc1cc(N2C(=O)CSCC2=O)c(Cl)cc1Cl,720
CC(=O)N1CCC(N(C(=O)Nc2c(F)cccc2F)C(C)C)CC1,0
CCn1cc(C(=O)NCc2ccc(Cl)cc2)c(=O)c2cc(S(=O)(=O)N3CCOCC3)ccc21,0
CC(C)N(CCCNC(=O)CC1Oc2ccccc2NC1=O)Cc1ccccc1 (configuration not stated),0
CCC(C)C(=O)Nc1nc2c(s1)C(=O)CC(C)(C)C2 (configuration not stated),200
CCOc1cc(C(=O)Nc2nnc(C)s2)cc(OCC)c1OCC,0
CC(C)(C)c1ccc(CS(=O)(=O)CC2(O)CCN(C(=O)c3cccc(C(F)(F)F)c3)CC2)cc1,0
Cc1ccc(-c2cc(C)nc3ncnn23)cc1,0
CC(NC(=O)Nc1ccc(Cl)cc1)C(c1cccs1)N1CCOCC1 (configuration not stated),240
Cc1ccc(/C=C(/C#N)c2nc(CCN3C(=O)c4ccccc4C3=O)cs2)cc1,0
COc1cc(C=O)ccc1OCCSc1ccc(Cl)cc1,0
COC(=O)CCN(C(=O)C12CC3CC(CC(C3)C1)C2)c1ccccn1,0
O=C(OC(C(=O)NCC1CCCO1)c1ccc(F)cc1)c1ccco1 (configuration not stated),40
CCC1(c2ccccc2)C(=O)NCNC1=O,0[10 µg/mL]
Cc1cc(Br)ccc1OCC(=O)N1CCCCCC1,0
CC(C)C(=O)c1cn(CC(=O)N2CCCc3ccccc32)c2ccccc12,0
CC1CCN(C(=O)C(C)Sc2nc(-c3ccccc3)cc(C(F)(F)F)n2)CC1 (configuration not stated),40

Not all compounds are listed; the hit share may differ from the screen's.
